Assay outcomes (PubChem)
INS promoter inh: inhibitors of insulin promoter-driven GFP, primary screen, imaging, TRM-6 cells (human fetal islet line), eGFP reporter, cell count. inhibition, % at 2 µM. reporter expression induced with tamoxifen. actives 0.9% (n = 130,000);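 active = inhibition above the mean plus 3 SD, with well images judged a real hit on visual review, cut at about 60% in these data, passing the limit was not always enough; inconclusive = inhibition over the cutoff but images rejected on review; inactive = inhibition not above the cutoff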
PKD1 inh: inhibitors of human PKD1 kinase, biochemical, fluorescence polarization. Serine/threonine-protein kinase D1 (Homo sapiens), Q15139. PKD1 kinase fluorescence polarization assay. inhibition, %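 (about 10 µM by stock and volumes)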. actives 0.056% (n = 200,000);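 active = inhibition of 50% or more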;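 note: controls were vehicle for no effect and a reference inhibitor for full effect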
Target sequence (Q15139 whole entry, looked up): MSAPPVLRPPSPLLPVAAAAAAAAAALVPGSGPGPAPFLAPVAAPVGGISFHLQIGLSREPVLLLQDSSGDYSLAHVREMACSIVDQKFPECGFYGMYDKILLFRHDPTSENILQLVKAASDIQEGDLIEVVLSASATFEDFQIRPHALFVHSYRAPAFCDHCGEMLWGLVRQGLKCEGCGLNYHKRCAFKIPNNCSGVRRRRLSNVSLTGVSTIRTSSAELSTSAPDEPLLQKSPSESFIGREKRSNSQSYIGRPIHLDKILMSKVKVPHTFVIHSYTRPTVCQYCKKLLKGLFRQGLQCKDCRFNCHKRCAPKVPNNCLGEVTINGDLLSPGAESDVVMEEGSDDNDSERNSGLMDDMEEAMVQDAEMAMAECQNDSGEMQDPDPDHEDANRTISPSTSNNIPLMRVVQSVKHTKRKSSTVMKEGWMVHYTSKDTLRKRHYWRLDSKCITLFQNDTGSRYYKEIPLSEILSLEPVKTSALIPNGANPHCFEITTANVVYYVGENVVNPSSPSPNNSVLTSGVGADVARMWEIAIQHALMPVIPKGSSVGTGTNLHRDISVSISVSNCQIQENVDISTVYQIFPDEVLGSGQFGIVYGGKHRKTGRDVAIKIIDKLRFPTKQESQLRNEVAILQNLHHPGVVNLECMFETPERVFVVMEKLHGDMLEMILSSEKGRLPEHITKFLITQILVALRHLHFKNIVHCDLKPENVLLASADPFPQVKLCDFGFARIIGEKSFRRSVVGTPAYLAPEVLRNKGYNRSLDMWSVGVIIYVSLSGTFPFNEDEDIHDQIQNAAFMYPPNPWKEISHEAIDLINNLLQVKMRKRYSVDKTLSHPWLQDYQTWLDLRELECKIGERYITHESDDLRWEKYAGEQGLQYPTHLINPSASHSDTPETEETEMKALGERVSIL
RGS16-Gao: modulators of RGS16 binding to Galphao, primary screen, biochemical, human proteins, multiplexed bead flow cytometry; Regulator of G-protein signaling 16 (Homo sapiens) + Guanine nucleotide-binding protein …; bead-based flow cytometry RGS16-Galphao binding, fluorescence; actives lie on both sides; binding response (% of control), % at 10 µM; actives 0.38% (n = 220,000);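 active = below 25% or above 175%, edge rows of some plates excepted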;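 note: Galphao activated by GDP with aluminum fluoride before binding; 100% = wells without compound and 0% = beads without RGS; some results beyond the cut were filed as inactive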
GALR2 agonist: GALR2 receptor agonists, primary screen, cell-based; GALR2-expressing cells, agonist activation read-out; activation, %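 (tested at 5 µM)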; actives 0.48% (n = 140,000); AID 803, 2007;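 active = above mean plus 3 SD of all compounds, about 5% in these data, not always enough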;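 note: 0% = vehicle buffer wells and 100% = reference agonist at full effect; tested in CHO reporter cells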
HSV augment: enhancers of HSV replication in host cells, fold increase, host cell viability. HSV replication augmentation in cells. maximum fold increase. actives 0.005% (n = 220,000);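 active = peak rise of 1.5-fold or more in the series; inconclusive = self-fluorescent or not available for retest; tested in PC3 cells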;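 note: first round at 10 µM; read as green reporter fluorescence; hits show the peak of a series up to 25 µM; 1 = signal of infected wells without compound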
INS promoter inh cell count: further read-out of INS promoter inh, marked with its call; normalized cell count, %; measured here: cell count, toxicity; reference of the scale not given here;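 cells exposed to compound for 48 h; stained nuclei by imaging scaled within each plate; lower means fewer cells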
HSV augment primary fold: second read-out of HSV augment, no call of its own (marks repeat the call); fold increase; compound at 10 µM; measured here: primary screen fold increase 10 uM; tested in PC3 cells;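 GFP signal in the first replicate; 1 = infected wells without compound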
Numbers without * were called inactive; i = inactive; ? = inconclusive; . = not tested or not shown. Rows were taken by chance; 1.1% or so of the library scored in one or more.

mol	INS promoter inh	INS promoter inh cell count	PKD1 inh	RGS16-Gao	GALR2 agonist	HSV augment	HSV augment primary fold
CCC(C)(C)c1ccc(OCC(=O)N(C)C)c(C(C)(C)CC)c1	.	.	-5.9	101.3	.	i	0.89
CCOC(=O)c1oc2nc(C(C)C)c3c(c2c1N)CC(C)(C)OC3	.	.	-0.7	103.3	-1.8	i	0.99
CSc1nc2cc(F)c(F)cc2n1C	86.5*	178.9*	-4.8	103.0	-0.6	i	0.95
COc1cccc(NC(=O)NCCC2=CCCCC2)c1	-400.0	87.4	-0.6	98.9	.	i	0.98
CCCCNC(=O)c1onc(CSc2ccccc2C)c1C(=O)O	24.3	76.8	-8.1	104.1	-3.1	i	0.93
CCc1ccc(OCC(=O)NCc2ccco2)c(Br)c1	0.0	106.8	-10.4	97.3	0.3	i	0.88
COCCNC(=O)CN1CCN(Cc2cccc(Cl)c2)C1=O	.	.	-15.4	75.5	-2.0	i	1
CCOC(=O)C(=O)c1cn(C2OCC(OC(C)=O)C(OC(C)=O)C2OC(C)=O)c2ccccc12 (centres undefined)	.	.	-5.2	104.0	0.2	i	0.93
Cc1ccc(NS(=O)(=O)c2cc(NC(=O)c3ccc4c(c3)NC(=O)CS4)ccc2C)c(C)c1	.	.	1.1	82.4	.	i	0.87
CC(C)C(C(=O)O)N1C(=O)/C(=C/c2cccn2C)SC1=S (centres undefined)	20.0	87.3	-2.3	93.6	-1.5	i	1.29

Seven compounds from above, ordered by the number in RGS16-Gao, rising.
mol | RGS16-Gao
COCCNC(=O)CN1CCN(Cc2cccc(Cl)c2)C1=O | 75.5
Cc1ccc(NS(=O)(=O)c2cc(NC(=O)c3ccc4c(c3)NC(=O)CS4)ccc2C)c(C)c1 | 82.4
CC(C)C(C(=O)O)N1C(=O)/C(=C/c2cccn2C)SC1=S (centres undefined) | 93.6
CSc1nc2cc(F)c(F)cc2n1C | 103.0
CCOC(=O)c1oc2nc(C(C)C)c3c(c2c1N)CC(C)(C)OC3 | 103.3
CCOC(=O)C(=O)c1cn(C2OCC(OC(C)=O)C(OC(C)=O)C2OC(C)=O)c2ccccc12 (centres undefined) | 104.0
CCCCNC(=O)c1onc(CSc2ccccc2C)c1C(=O)O | 104.1

New compounds follow
mol	INS promoter inh	INS promoter inh cell count	PKD1 inh	RGS16-Gao	GALR2 agonist	HSV augment	HSV augment primary fold
COC(=O)Cc1cc(=O)[nH]c(Nc2nc3ccccc3o2)n1	35.8	67.1	-14.4	104.0	-1.6	i	0.95
COc1ccccc1NC(=O)c1c(C)oc2c1CCCC2	-4.8	107.9	-5.0	99.8	-1.4	i	1.02
O=C(CCn1cnc2ccccc21)N=Nc1c(O)[nH]c2ccccc12	.	.	.	100.3	.	i	1.04
CS(=O)(=O)N(CC(=O)Nc1ccc(S(=O)(=O)N2CCOCC2)cc1)c1cccc(F)c1	.	.	-4.3	97.8	.	i	1.04
COc1ccc(C(=O)Nc2ccccc2C(=O)NCCCn2ccnc2)cc1	42.9	102.0	13.0	117.4	-1.9	i	0.99
Cc1ccc(S(=O)(=O)NC(=O)c2ccc(Br)o2)cc1	19.1	136.5	4.1	101.7	-1.1	i	0.88
COc1ccc(NC(=O)c2ccc(Cl)c(S(=O)(=O)N3CCc4ccccc4C3)c2)cn1	0.0	85.3	-1.8	104.4	-1.8	i	0.95
COc1ccc2nc(C)cc(SCC(=O)N/N=C/c3cccc4ccccc34)c2c1	27.3	98.8	-3.5	109.1	1.3	i	0.59
Cc1cc(NC(=O)CSc2nnc3c(C)cc4c(C)ccc(C)c4n23)no1	57.7	111.7	-2.4	100.2	0.2	i	0.51
COC(=O)CCC(=O)NNC(=O)CCCOc1ccc(Cl)cc1Cl	-24.4	115.6	-1.4	101.5	-1.7	i	1.1
O=C(CSc1nnc(NC(=O)c2ccco2)s1)NCc1ccc2c(c1)OCO2	.	.	5.9	101.3	.	i	1
O=C(Cn1nnc2ccccc2c1=O)NCC1CCC(C(=O)O)CC1 (centres undefined)	.	.	.	97.4	.	i	0.97
COc1ccccc1NS(=O)(=O)c1cccc(C(=O)NN=C2CCCCCC2)c1	13.2	83.1	1.6	106.4	0.7	i	0.98
CC1=C(C(=O)OCC2CCCO2)C(c2cccc(C(F)(F)F)c2)C2=C(CC(c3ccco3)CC2=O)N1 (centres undefined)	.	.	3.0	91.3	1.5	i	1
Cc1ccc(-c2csc3ncnc(N4CCc5ccccc5C4)c23)cc1	.	.	-3.1	99.6	-1.6	i	0.96
COc1cc(OC)cc(-c2cc(N)n(S(=O)(=O)c3cccc4nsnc34)n2)c1	.	.	.	101.5	.	i	0.94
Oc1ccc(Cl)cc1CNc1ccc(Br)cn1	13.6	123.5	-3.2	113.7	-2.8	i	0.88
CCc1sc(/C=C(/C#N)C(N)=S)cc1[N+](=O)[O-]	.	.	0.1	97.1	.	i	1.54
COC(=O)c1ccc(Oc2cc(C)nc(Cl)n2)cc1	.	.	5.9	112.0	.	i	0.56
COCc1[nH]c(=S)c(C#N)cc1C(=O)OC	.	.	.	101.8	.	i	1.01

4 compounds out of the list, arranged by molecular weight, rising:
mol	INS promoter inh	INS promoter inh cell count	PKD1 inh	RGS16-Gao	GALR2 agonist	HSV augment	HSV augment primary fold
Oc1ccc(Cl)cc1CNc1ccc(Br)cn1	13.6	123.5	-3.2	113.7	-2.8	i	0.88
O=C(Cn1nnc2ccccc2c1=O)NCC1CCC(C(=O)O)CC1 (centres undefined)	.	.	.	97.4	.	i	0.97
COc1cc(OC)cc(-c2cc(N)n(S(=O)(=O)c3cccc4nsnc34)n2)c1	.	.	.	101.5	.	i	0.94
O=C(CSc1nnc(NC(=O)c2ccco2)s1)NCc1ccc2c(c1)OCO2	.	.	5.9	101.3	.	i	1

(cont.)
mol	INS promoter inh	INS promoter inh cell count	PKD1 inh	RGS16-Gao	GALR2 agonist	HSV augment	HSV augment primary fold
CCCCn1c(=O)[nH]c(=O)c2c1ncn2Cc1ccco1	.	.	-3.5	72.1	-3.3	i	1.03
O=C(NNC(=S)Nc1ccc(Br)cc1)c1ccc(N2CCOCC2)c([N+](=O)[O-])c1	26.7	142.7	2.4	101.6	-1.1	i	0.93
CC(C)CNC(=O)COC(=O)c1ccc(F)cc1Cl	58.3	62.6	2.9	110.1	.	i	0.95
COc1ccc2c(=O)c3c(=O)n(Cc4ccco4)c(-c4cc(OC)c(OC)c(OC)c4)nc3oc2c1	62.5	78.1	-8.3	105.1	-1.8	i	0.94
O=C(O)c1cccc(S(=O)(=O)Nc2ccc3oc(=O)sc3c2)c1	54.5	86.8	3.2	91.3	-0.4	i	0.963
O=C(CCNc1ccc(F)cc1)c1cc2ccccc2o1	8.3	125.0	-5.1	102.1	.	i	0.74
COc1ccc(CCn2c(-c3ccc(Cl)cc3)n[nH]c2=S)cc1OC	-46.1	106.2	1.8	94.3	.	i	1.01
CCCN(Cc1ccccc1)C(=S)Nc1ccc(OC(F)F)cc1	.	.	-5.3	104.6	-1.7	i	0.92
O=C(Nc1nc(=S)ss1)c1c(F)cccc1F	23.3	99.8	-8.8	84.6	-1.1	i	0.98
Cn1c(CN2CCCCC2)nc2cc(NS(=O)(=O)c3ccc(F)cc3)ccc21	.	.	-7.3	92.7	.	i	1.02
Nn1c(SCc2cccc(Oc3ccccc3)c2)nnc1C(F)(F)F	-28.6	78.4	-7.8	105.6	-1.4	i	1.05
O=c1nc2cccc3c2=c(/c1=C(\O)c1ccccc1)c1ccccc1c3=O	.	.	0.6	65.8	.	i	1.21
Cc1cccc(NC(=O)c2sc3nc4c(c(-c5cccs5)c3c2N)CN(C)CC4)c1	-133.3	146.5	0.5	106.5	-0.8	?	.
CCOC(=O)Cn1ncn(-c2ccc(OC(F)(F)F)cc2)c1=O	.	.	8.3	90.3	.	i	0.95
CCOc1ccc(NCc2nnc(SCc3ccccc3Cl)n2-c2ccccc2)cc1	-56.7	78.4	1.7	89.7	-0.5	i	0.74
NS(=O)(=O)c1ccc(NC(=O)CN2CCN(S(=O)(=O)/C=C/c3ccccc3)CC2)cc1	.	.	.	102.0	.	i	0.91
COc1ccc(CCNC2CC(C)N(C)CC2C)cc1OC (centres undefined)	60.0	65.0	-1.0	102.0	-2.6	i	1.07
Cc1ccc(S(=O)(=O)N(C)Cc2ccc(C(=O)N/N=C3\CC(=O)CC(C)(C)C3)cc2)cc1	21.4	127.2	4.1	107.2	-0.5	i	1.03
Cc1nc2c(c(=O)n1CCC1=CCCCC1)c1nc3ccccc3nc1n2/N=C/c1ccco1	-46.1	161.8	5.8	71.4	-0.3	.	.
C=CCn1c(SC(C)C(=O)NC2(C#N)CCCCC2)nnc1-c1ccc(OC)cc1 (centres undefined)	7.9	141.3	9.5	114.7	0.4	i	1.22
CCc1nc(N)c(C#N)c(-c2ccc(O)c(OC)c2)c1C	.	.	-4.8	100.0	-0.3	i	0.81
COCCNC(=O)c1ccc2c(=O)n(Cc3ccco3)c(SCC(=O)NC3CCCCC3)nc2c1	6.7	141.3	-7.0	103.8	-1.0	i	0.86
Cc1ccc(C(=O)/C=C/c2ccc(-c3ccccc3[N+](=O)[O-])o2)cc1	-29.6	117.5	2.2	107.7	-2.2	i	1.11
O=C1NC(c2ccc(Cl)c([N+](=O)[O-])c2)Nc2ccccc21 (centres undefined)	.	.	-1.9	104.8	.	i	0.92
O=C(NCCCN1CCCC1=O)c1ccc2c(=O)n(-c3ccccc3F)c(=S)[nH]c2c1	6.7	110.0	-2.6	99.6	.	i	1.02
Cc1ccccc1-n1nnnc1SC(C)C(=O)NC1CCCc2ccccc21 (centres undefined)	-31.2	153.4	1.8	100.0	-1.1	i	0.99
O=C(CN1CCN(Cc2ccccc2)CC1)Nc1ccc([N+](=O)[O-])cc1C(=O)Nc1ccccc1F	-3.6	75.0	-12.1	85.3	0.3	i	0.53
CCCCNC(=O)c1ccc2c(SCC(=O)O)c3c(nc2c1)CCCC3	-5.6	40.3	-6.4	109.5	-2.6	i	1.02
COCCCNC(=S)NNC(=O)c1cc(Cl)c(O)c(Cl)c1	.	.	.	95.0	.	i	0.94
CC1(C)CC(=O)N(CC(=O)NCc2ccc(F)cc2)c2ccccc2S1(=O)=O	.	.	1.5	105.3	-1.6	i	0.92
COc1ccc(SCC(=O)Nc2ccc(N3CCN(C)CC3)c(F)c2)cc1	.	.	-2.9	104.9	.	i	1.03
COc1ccc(C(=O)NC(=O)COC(=O)C2COc3ccccc3O2)cc1 (centres undefined)	-3.2	104.3	6.5	100.7	-0.8	i	0.89
CC(C)Nc1ccc(C(CC(N)=O)NC(=O)c2ccc(Br)cc2)cc1[N+](=O)[O-] (centres undefined)	.	.	.	95.4	.	i	0.565
